HCMV NEC inh – inhibitors of HCMV UL50-UL53 interaction, biochemical, HTRF; HCMV UL50-UL53 nuclear egress complex (human cytomegalovirus); 190,000 compounds, 0.15% hits; inhibition, % (concentration not given with the values); AID 1918969, 2023; normalized percent inhibition;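 active = both replicates at 50% or more, plus weaker picks with an unusually low signal ratio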;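 also: stock transfer was 100 nL into about 20 µL; 0% = negative control wells and 100% = wells with untagged competitor protein; inactives centre near -12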
Sa growth inh – S. aureus growth inhibition at 42 and 30 °C, primary screen, LtaS inhibitor project, RN4220, two temperatures; 170,000 compounds, 0.53% hits; OD600, 20 h, 42 °C; stronger effect = lower value; AID 720641, 2013; relative growth, % (no concentration beside the values);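 active = growth at 42 °C up to 50% and 20 or more points under that at 30 °C, or under 10% at both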;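 also: 300 nL library stock went into each well; scaled to the means of positive and negative controls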
GIV-Gai inh – inhibitors of GIV peptide binding to Galpha-i3, primary screen, biochemical, fluorescence polarization, FITC-GIV GBA peptide, rat Galphai3; 210,000 compounds, 0.42% hits; 90 min; stronger effect = lower value; scaled: aluminum fluoride 0%, vehicle 100%; percent of control (FP), % (no concentration beside the values); Guanine nucleotide-binding protein G(i) subunit alpha-3 (Rattus norvegicus), P08753;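 active = replicate mean at 85% of control or lower, very high polarization wells dropped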;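 also: wells of about 15 µL received 100 nL stock; the first replicate is given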
Target sequence (P08753 whole entry, looked up): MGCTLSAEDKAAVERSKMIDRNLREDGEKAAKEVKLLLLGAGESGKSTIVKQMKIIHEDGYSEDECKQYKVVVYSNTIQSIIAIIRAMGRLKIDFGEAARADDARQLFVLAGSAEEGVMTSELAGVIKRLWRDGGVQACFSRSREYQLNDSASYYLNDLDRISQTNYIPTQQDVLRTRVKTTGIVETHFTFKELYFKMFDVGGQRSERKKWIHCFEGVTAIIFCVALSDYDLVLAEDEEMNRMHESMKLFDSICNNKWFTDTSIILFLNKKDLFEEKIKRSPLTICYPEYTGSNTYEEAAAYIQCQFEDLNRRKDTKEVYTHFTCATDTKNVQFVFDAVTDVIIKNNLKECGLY
Sa growth inh second temp – also measured in Sa growth inh; calls as there; relative growth, %; measured here: growth at 30 °C;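 optical density after 20 h as mean of two plates; 100% = untreated growth and lower means inhibition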
* marks the source's active call; other numbers are inactive results; / = not tested or not shown; & = joins results of further samples. Outcome played no part in choosing rows; any-hit rate near 0.8%.

SMILES	HCMV NEC inh	Sa growth inh	Sa growth inh second temp	GIV-Gai inh
C=CCn1c(SCC(=O)c2ccc(F)cc2)nc2sc(CC)cc2c1=O	-5.0	/	/	106.3
CCOc1ccc(CNC(=O)c2ccc(NC(=O)N3CCSc4ncccc43)cc2)cc1	/	98.0	92.7	106.3
COC(=O)c1ccc(N=Cc2cccs2)cc1	-3.6	103.0	99.5	99.5
CCOc1cc(CNCCSc2nnnn2C)ccc1OCc1ccccc1Cl	-23.4	/	/	98.5
COc1cc(OC)cc(N2C(=O)N(Cc3ccc(C(C)(C)C)cc3)c3ccccc3S2(=O)=O)c1	/	111.9	103.8	103.7
COCCCNc1nc2c(-c3ccccc3)nnn2c2ccccc12	-17.7	101.6	87.4	105.4
c1ccc(-c2nnc3n2C2(CCCC2)Cc2ccccc2-3)cc1	/	102.2	94.6	107.1
Cc1ccc(Cc2nnc(C(=O)NCc3ccccc3)o2)cc1	/	108.9	85.9	105.4
COC(=O)c1cc2ccccc2c(CN2C(=O)c3ccccc3C2=O)c1O	-14.7	102.3	87.1	103.1
O=C1C(Cc2ccc(F)cc2)Sc2nc3ccccc3n21 (stereo not drawn)	-7.1	117.4	93.2	/
COC(=O)c1cnn(-c2ccccc2)c1-n1cccc1	-2.3	95.2	103.9	109.5
Cc1cc(C)cc(Nc2cc(=O)oc3ccccc23)c1	/	93.1	87.2	97.3
CC(C)N(C(=S)NCC1CCCO1)c1ccccc1 (stereo not drawn)	-12.1	92.7	89.3	/
O=C(CSc1ncccn1)NC(=O)NCc1ccco1	-21.5	72.1	93.6	/
CCCNC(=O)c1ccc2c(c1)ncn2-c1cc(OC)ccc1OC	/	95.1	84.6	103.8
CCc1cccc(NC(=O)Cn2nc(CC)n3c(cc4cc(C)ccc43)c2=O)c1	-9.4	107.2	91.9	110.6
Cc1ccc(NC(=O)CNC(=O)c2ccc(Br)o2)c(C)c1	0.8	107.7	101.0	110.8
CCCN1CCN(C(=O)c2cnc(Nc3ccc(C)c(Cl)c3)c3ccccc23)CC1	-25.4	/	/	99.3
COC(=O)CN1C(=O)CS/C1=C\C#N	-7.0	99.5	98.0	/
O=C(O)CCc1nnc2ccc(Cl)nn12	/	93.2	97.4	103.8
CC1CCCN(C(=O)COC(=O)c2ccccc2O)C1 (stereo not drawn)	-31.7	101.6	82.6	/
NS(=O)(=O)c1ccc(CCNC(=O)c2ccc3nc(CCc4ccccc4)oc3c2)cc1	/	100.4	90.5	97.6
Fc1cccc(-c2nnn3c2nc(NC2CCCCC2)c2ccccc23)c1	-36.7	105.5	85.9	104.9
CCCc1cc(=O)oc2cc(C)c3c(-c4ccccc4)coc3c12	-31.5	107.9	84.4	97.8
Nc1nc(-c2ccccc2)nn1C(=O)c1ccc(F)cc1	-24.9	/	/	104.6

Carrying on:
SMILES	HCMV NEC inh	Sa growth inh	Sa growth inh second temp	GIV-Gai inh
Cc1cc(=O)n(C(C)C(=O)N2CCCc3ccccc32)c2c1c(C)nn2-c1ccccc1 (stereo not drawn)	/	109.1	88.3	109.9
CCN1CCN(C(=O)/C=C/c2cccs2)CC1	-66.3	113.3	83.0	/
CCOC(=O)NC(=O)Cn1nnc(-c2cccc(C(F)(F)F)c2)n1	-36.1	77.7	94.1	/
O=C(NCc1ccc2c(c1)OCO2)c1ccc2c(c1)N(Cc1ccccc1F)C(=O)c1ccccc1S2=O (stereo not drawn)	-34.5	94.8	91.8	99.3
Cn1cnc(S(=O)(=O)N2CCC(C(=O)NCc3ccccc3)CC2)c1	/	94.9	92.7	97.4
Cc1cn(COCCO)c(=O)[nH]c1=O	0.5	100.7	99.3	105.8
Cc1ccc(Nc2c(-c3ccc(Br)o3)nc3ccccn23)cc1	9.5	100.2	110.8	103.9
Cn1nnnc1SCCC(=O)Nc1ccccc1	4.1	92.0	85.7	102.3
CCCCN1C(=O)c2ccc(-c3ccccc3)n2CC1(C)C(=O)NC1CCC(C)CC1 (stereo not drawn)	-10.9	/	/	102.8
N#Cc1ccc(NC(=O)c2cccs2)cc1	-1.3	95.9	92.3	/
COc1cc(NC(=O)c2cc(-c3ccc4c(c3)OCO4)on2)cc(OC)c1OC	7.7	84.0	90.7	101.3
O=C1c2ccccc2C(=O)N1CC1c2ccccc2CCN1S(=O)(=O)c1cnc[nH]1 (stereo not drawn)	-30.1	109.3	84.4	95.9
CCCN1C(=O)/C(=c2\sc3nc(=O)c(-c4ccccc4)nn3c2=O)c2ccccc21	/	116.8	84.6	97.6
O=C(OCc1ccco1)c1sc2sccc2c1Cl	-1.2	107.7	94.3	104.9
Cc1cccc2sc(N(Cc3cccnc3)C(=O)COc3ccccc3)nc12	/	106.3	60.5	97.3
CC(NC(=O)COc1ccc(F)cc1Cl)C1CCCO1 (stereo not drawn)	-11.0	109.0	98.9	96.9
Cc1ccc(-c2nnc(Nc3ccc(S(N)(=O)=O)cc3)c3ccccc23)cc1S(=O)(=O)N1CCN(C)CC1	-11.4	96.5	89.5	103.0
CCOC(=O)C1CCCN(c2c(N3CCOCC3)c(=O)c2=O)C1 (stereo not drawn)	-73.7	/	/	98.7
O=C(O)c1ccc(N=Cc2cccn2-c2ccc(Br)cc2)cc1	-6.4	97.8	91.8	/
CC(C)C(C(=O)O)N1C(=O)c2ccccc2C1=O (stereo not drawn)	2.5	112.5	94.2	/
CS(=O)(=O)c1cccc(S(=O)(=O)Nc2cccc(C(F)(F)F)c2)c1	-37.2	88.5	100.1	100.7
Cc1ccc(CNS(=O)(=O)c2ccc(-c3cnc(C4CC4)o3)cc2)cc1	/	105.0	96.2	100.2
CCN1C(=O)N(c2ccc(C(C)=O)cc2)S(=O)(=O)c2ccccc21	/	94.8	92.4	101.9
CCN(Cc1ccccc1)C(=O)CCS(=O)(=O)c1cc(Br)cc2c1N(C(=O)C1CC1)CC2	0.1	119.1	90.3	94.8
Oc1ccccc1C(Nc1ccccn1)c1ccc2cccnc2c1O (stereo not drawn)	-61.8	4.8*	1.8*	/

(continued)
SMILES	HCMV NEC inh	Sa growth inh	Sa growth inh second temp	GIV-Gai inh
O=C(O)CSc1c2c(nc3cc(C(=O)NCc4cccs4)ccc13)CCCC2	/	103.8	92.3	98.2
COC(=O)c1c2c(nc3ccccc13)CCCCC2	-18.0	92.2	79.6	/
CSc1nnc(CNC(=O)C2CCCC2)n1C	-6.3	108.2	87.9	102.6
Cc1ccc(-n2cc(-c3ccc4c(c3)OCO4)[nH]c2=S)c(C)c1	/	79.1	85.1	111.1
N#Cc1cccc(C(c2nnnn2Cc2ccccc2)N2CCCC2)c1 (stereo not drawn)	8.7	80.9	84.2	106.2
CCc1nn(CC(=O)NCc2cccc(OC)c2OC)c(=O)c2cc3occc3n12	3.0	105.9	94.6	97.6
Cc1cccc(-n2c(Cc3cc(=O)[nH]c(=O)[nH]3)nnc2SCC(=O)NC2CCCC2)c1	-42.7	94.7	83.9	100.3
CNc1nc(-c2c[nH]c3ccc(F)cc23)cs1	-16.4	86.6	8.4	130.5
O=c1[nH]nc(-c2ccccc2)[nH]1	-13.1	91.2	83.6	105.2
CCOc1ccc(-c2nc(CN3CCCCC3)cs2)cc1	-20.4	100.7	91.9	/
O=C(Cc1ccccc1)Nc1cccc(-c2nc3ncccc3o2)c1	-13.1	101.5	88.2	102.0
Cc1cc2c(cc1S(=O)(=O)CCC(=O)N1CCc3ccccc31)OCC(=O)N2	-16.6	/	/	101.6
Cc1c(N=c2scc(-c3ccccc3)n2-c2ccccc2)c(=O)n(-c2ccccc2)n1C	-12.3	108.2	89.1	/
O=C(O)COCC(=O)Nc1ccc(Oc2cccc(C(F)(F)F)c2)nc1	-5.4	87.6	80.6	102.2
O=C(O)CCc1nc2ccccc2[nH]c1=O	-24.7&-12.0	98.6	94.6	103.0
C#CCOC(=O)Nc1ccc(Cl)c(Cl)c1	-23.8	74.9	50.0	108.1
OCC(CO)(CO)NCC(O)CN1c2ccccc2Sc2ccccc21 (stereo not drawn)	3.5	109.1	80.4	107.4
O=C(NCc1ccc2c(c1)OCO2)C1CCCN(C(=O)c2cc(-c3cccnc3)n[nH]2)C1 (stereo not drawn)	6.5	/	/	107.5
CC1(C)CC(=O)c2cc(C(=O)O)c(=O)n(-c3ccccc3)c2C1	-13.2	88.2	85.4	99.3
Cn1c(=O)c2c(SCC(=O)N3CCc4ccccc43)nc(-c3cccc(F)c3)nc2n(C)c1=O	/	101.4	100.8	103.4
CCOC(=O)C1CCN(C(=O)c2cc3c(C)cc(C)cc3[nH]2)CC1	-2.5	99.7	90.4	101.4
COc1ccc(N2CC(C(=O)Nc3ccc(-c4nc(-c5ccc(C)cc5)no4)cc3)CC2=O)cc1 (stereo not drawn)	12.7	/	/	105.2
O=C1CN(C(=O)c2ccc3c(c2)S(=O)(=O)c2ccccc2C3=O)c2ccccc2N1	-38.9	115.1	105.0	/
COC(=O)C1=C(C)NC2=C(C(=O)CC(c3ccc(OC)c(OC)c3)C2)C1c1ccc(Cl)c(Cl)c1 (stereo not drawn)	12.6	/	/	105.7
O=C1/C(=C\c2ccccc2)Sc2ccccc21	37.0	107.9	80.4	98.7

(next part)
SMILES	HCMV NEC inh	Sa growth inh	Sa growth inh second temp	GIV-Gai inh
Cc1cccn2cc(CSc3nnc(-c4nn(Cc5ccccc5)c(=O)c5ccccc45)o3)nc12	-0.8	101.0	99.8	/
Cc1cccc(C)c1Nc1c(-c2ccc(Cl)s2)nc2ncccn12	-13.8	99.2	65.2	123.3
Cc1ccccc1Nc1c(-c2cccnc2)nc2cccc(C)n12	-2.6	106.0	87.0	97.9
Cc1cc(Br)ccc1N1C(=O)NC(=O)/C(=C/c2cn(CC(=O)N3CCOCC3)c3ccccc23)C1=O	0.2	/	/	103.0
Cc1ccc2nc3sc(C(=O)O)c(N)c3cc2c1	-108.5	72.9	59.6	105.1
C=CCNC(=O)c1ccc(-c2cc(C(F)(F)F)ccc2Cl)o1	-13.3	113.0	93.3	102.7
CSC1=N/C(=C\c2ccc(Br)cc2)C(=O)S1	/	86.2	91.6	107.6
CC(=O)Nc1cccc2c1C(=O)NC2=O	-62.7	94.0	96.4	/
NC(CC(=O)O)c1ccccc1C(F)(F)F (stereo not drawn)	6.0	110.1	92.4	/
C=CCN1C(=O)C(CC(=O)NCC(=O)O)SC1=Nc1ccc(Cl)cc1 (stereo not drawn)	-11.4	94.1	82.2	94.8
CCOC(=O)N1CCN(S(=O)(=O)c2c[nH]c(=O)[nH]c2=O)CC1	-12.0	/	/	103.3
Nc1cc(=O)nc(SCC(=O)NCc2ccccc2)n1CCc1ccccc1	-4.0	100.3	81.8	104.0
CCOc1ccccc1NC(=O)N1CCCN(c2ccc(=O)n(-c3ccc(F)cc3)n2)CC1	-11.4	/	/	107.4

Bioassay records deposited in PubChem BioAssay by ICCB-Longwood Screening Facility, Harvard Medical School.
